2A StopGo – lowers the luciferase signal of an FMDV 2A StopGo reporter; human cells with a luciferase reporter of 2A StopGo recoding; control for the full effect not named in the record; Potency, µM (highest dose often 57.9 µM), inactives show at the highest dose signal change, negative = less light; actives 1.2% (n = 410,000); AID 1159524; active = well fitted falling curve with a large enough effect; inconclusive = small, poorly fitted or top-dose-only effect; inactive = no such curve, though single readings can be large or run the other way; tested in HEK293T cells; further: on the % scale 0 is the no-effect control and ±100 the full control effect; nearly all actives have a fitted effect of over 45% in size; luciferase light after 4 h
NS1 inh – influenza NS1 inhibition. S. cerevisiae slowed by influenza A NS1, growth recovery by OD600. Potency, µM (titrated, usually from 46.1 µM), for inactives: at the highest dose activity, positive = more growth. actives 0.4% (n = 270,000); active means well fitted rising curve with a large enough effect; inconclusive means small, poorly fitted or top-dose-only effect; inactive means no such curve, though single readings can be large or run the other way; further: nearly all actives have a fitted effect of over 50% in size
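Recovery from NS1-induced slow growth read by OD600 in budding yeast switched to galactose assay medium (pH 6.0, -URA) at 1:100 dilution. Compound 23 nl per well; the matching strain lacking NS1 serves as control.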
RE007 growth inh – less growth of the S. pombe RE007 Vpr strain | actives 0.21% (n = 360,000) | Potency, µM (top dose mostly 92.2 µM), for inactives: at the top dose activity change, negative = less growth | S. pombe RE007 Vpr strain, BacTiter-Glo ATP luminescence, 24 h; control for the full effect not named in the record; active = well fitted falling curve with a large enough effect; inconclusive = small, poorly fitted or top-dose-only effect; inactive = no such curve, though single readings can be large or run the other way;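 further: on the % scale 0 is the no-effect control and ±100 the full control effect; nearly all actives have a fitted effect of over 50% in size; the assay follows cell death caused by Vpr and the record does not say whether a fall means rescue or toxicity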
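Fission yeast strain RE007, carrying one chromosomally integrated HIV-1 vpr copy, was seeded at OD 0.01 in PMG+AL medium with 23 nL pinned compound. After 24 h at 30 °C and 99% humidity, viability was read by BacTiter-Glo luminescence.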
Cruzain inh Det – blocks cruzain activity in presence of Triton detergent | purified cruzain, Z-FR-AMC fluorescence, 0.01% Triton | actives 0.43% (n = 200,000) | Potency, µM, for the others: max response, negative = inhibition, actives largely listed as inhibitors | P25779 | AID 1478;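 further: plate controls were neutral wells for no effect and buffer without enzyme for full effect; nearly all actives have a fitted effect of over 40% in size; top concentration of the series not given in the record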
Target sequence (P25779 123-467 limits assumed): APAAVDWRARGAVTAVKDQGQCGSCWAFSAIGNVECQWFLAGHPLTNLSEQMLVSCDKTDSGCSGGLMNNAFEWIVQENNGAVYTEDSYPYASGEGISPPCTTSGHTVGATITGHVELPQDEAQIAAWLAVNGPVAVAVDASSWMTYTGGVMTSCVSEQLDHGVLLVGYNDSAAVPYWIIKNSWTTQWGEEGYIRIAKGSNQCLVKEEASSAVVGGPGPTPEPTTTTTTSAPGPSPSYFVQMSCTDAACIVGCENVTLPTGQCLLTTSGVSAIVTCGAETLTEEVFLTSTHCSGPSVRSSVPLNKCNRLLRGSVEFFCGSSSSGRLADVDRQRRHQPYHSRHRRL
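Z-FR-AMC hydrolysis (2 uM substrate) by cruzain (1.5 nM) monitored kinetically at ex 360/em 450 nm after 15 min room-temperature compound exposure; 0.01% Triton X-100, pH 5.5, 5 mM DTT.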
SARS PLpro yeast – inhibitors of SARS-CoV papain-like protease in yeast | S. cerevisiae expressing SARS-CoV PLpro, growth rescue; control for the full effect not named in the record | Potency, µM (titrated, usually from 32.9 µM), without a hit: at the highest dose activity, positive = growth rescue | actives 0.19% (n = 330,000); active means well fitted rising curve with a large enough effect; inconclusive means small, poorly fitted or top-dose-only effect; inactive means no such curve, though single readings can be large or run the other way; further: 0% is about no effect; nearly all actives have a fitted effect of over 55% in size; growth read by luminescence after 48 h
Cruzain inh noDet – cruzain (T. cruzi) inhibition without detergent; P25779; purified cruzain, Z-FR-AMC fluorescence, no detergent; Potency, µM, without a hit: max response, negative = inhibition, actives largely listed as inhibitors; actives 2.3% (n = 200,000);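 further: plate controls were enzyme without inhibitor for no effect and buffer without enzyme for full effect; nearly all actives have a fitted effect of over 40% in size; top concentration of the series not given in the record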
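Purified cruzain at 1.5 nM, pre-incubated 15 min with compound at room temperature in 100 mM sodium acetate pH 5.5, 5 mM DTT, 0.00005% Triton X-100. Reaction started with 2 uM Z-FR-AMC; AMC fluorescence increase over 60 s gives rate.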
LASV entry inh – blocks Lassa virus binding to or entry into cells. Lassa virus pseudotype entry inhibition, cell reporter; control for the full effect not named in the record. Potency, µM (series often up to 37.9 µM), inactives show top-dose activity change, negative = inhibition, most hits filed as inhibitors. actives 1.2% (n = 300,000); active means well fitted inhibition curve with a large enough effect; inconclusive means small, poorly fitted or top-dose-only effect, or effect the other way; inactive means flat fitted curve, though single readings scatter; tested in HEK293 cells; further: on the % scale 0 is the no-effect control and ±100 the full control effect; nearly all actives have a fitted effect of over 50% in size; luciferase read-out
Marburg entry inh – inhibitors of Marburg virus binding or cell entry | Marburg virus pseudotyped entry inhibition, cell reporter; control for the full effect not named in the record; about a third of the inactives were read at about 46 µM | Potency, µM (series often up to 37.8 µM), for inactives: top-dose activity change, negative = inhibition, hits mostly inhibitors | actives 1.8% (n = 300,000) | AID 540276; active = well fitted inhibition curve with a large enough effect; inconclusive = small, poorly fitted or top-dose-only effect, or effect the other way; inactive = flat fitted curve, though single readings scatter; tested in HEK293 cells; about a fifth of its hits are not listed in these tables; further: on the % scale 0 is the no-effect control and ±100 the full control effect; luciferase read-out
* marks the source's active call; other numbers are inactive results; ? = inconclusive; . = not tested or not shown; & = joins results of further samples; [ ] = dose if it differs, or a comment. Unless noted, the call rests on the fitted dose curve; in most records, active means well fitted curve in the direction sought with a large enough effect; inconclusive means small, poorly fitted or top-dose-only effect, or another doubt; inactive means no such curve, though single readings can be large; an effect the other way counts as inactive or inconclusive. Potency means the concentration at half of the fitted maximal effect.

SMILES | 2A StopGo | NS1 inh | RE007 growth inh | Cruzain inh Det | SARS PLpro yeast | Cruzain inh noDet | LASV entry inh | Marburg entry inh
O=C1CC(c2ccccc2)Cc2[nH]c(=O)c(-c3nc(-c4cccc(Cl)c4)cs3)cc21 (stereo not given) | 3.8% | . | . | -2.6% | . | -0.1% | -13.5%[46.1 µM] | -0.3%[46.1 µM]
Cc1ccc(C(=O)N(CC(=O)NC2CCCC2)c2ccccc2Cl)s1 | -2.3% | 2.9% | -17.1% | . | 2.3% | . | 17.2% | 13.5%[46.1 µM]
Clc1ccc(-c2nnc(-c3ccccc3)o2)cn1 | 76.5%[activator] | -2.7% | -24.4% | . | -0.9% | . | 4.6% | 16.5%
CCCc1nc(NCc2ccco2)c(C#N)c2c1COC(C)(C)C2 | -15.4% | 1.9% | 4.5% | 4.4% | 3.9% | -28.7% | 0.7% | -10.4%
CSc1nnnn1-c1ccc(C)c(Cl)c1 | -13.1% | 6.9% | -4.1% | -2.4% | 24.3% | -3.8% | 0.5% | ?
Cc1c(Cl)cccc1NC(=O)Cn1nnc(C(=O)NCc2cccs2)c1N | 6.6% | . | -3.6% | . | 0.4% | . | -26.1% | -21.0%[46.1 µM]
Cc1cc2c(SCC(=O)NCC3CCCO3)ncnc2s1 (stereo not given) | 25.1% | 8.5% | 2.6% | . | 1.1% | . | 26.9% | 3.4%[46.1 µM]
C=CCSc1nc2c(c(=O)[nH]1)C(C(C)C)C(C#N)=C(N)O2 (stereo not given) | -15.7% | 0.7% | 10.9% | 0.1% | 1.9% | 4.7% | . | .
Cc1n[nH]c(=O)nc1N/N=C/c1cccs1 | 20.2% | . | ? | . | -6.8% | . | -4.0%[46.1 µM] | -10.9%[46.1 µM]
COc1ccc(N2CC(C(=O)NCCc3ccc(OC)c(OC)c3)CC2=O)cc1 (stereo not given) | -2.6% | 7.0% | 20.7%[3.69 µM] | 4.7% | -1.1% | -1.1% | 1.5% | -4.4%
COc1ccc(S(=O)(=O)NCCc2nnc3ccc(SCC(=O)Nc4ccc(C(F)(F)F)cc4)nn23)cc1 | -13.2% | . | . | -5.9% | . | ? | 11.6%[46.1 µM] | .
Cc1ccc(OCc2nnc(SCC(=O)NC3CCCCC3)n2C)cc1 | 19.3% | 2.0% | 0.1% | -1.3% | 0.1% | 2.7% | ? | ?
COc1ccc(OC)c(S(=O)(=O)N2CCC(C(=O)N3CCN(c4ccc(F)cc4)CC3)CC2)c1 | ? | -16.8% | 0.3% | . | -3.2% | . | 4.3% | -14.7%
CCCN(Cc1cccs1)C(=O)Nc1ccc(Br)c(C)c1 | 14.3% | . | . | -4.2% | . | -2.2% | 18.6%[46.1 µM] | -13.7%[46.1 µM]
O=C(CSc1nc(-c2ccccc2)cc(=O)[nH]1)NCc1ccc2c(c1)OCO2 | -4.0% | 5.8% | 22.7% | -0.4% | 1.1% | -17.6% | 18.2% | -7.8%
CCOC(=O)c1sc(NC(=O)c2nc(SC)ncc2Cl)c(C(=O)OCC)c1C | -13.7% | . | . | -1.7% | . | 1.5% | 14.4%[46.1 µM] | 2.7%[46.1 µM]
COc1ccc(C2NC(=O)NC(C)=C2C(=O)OCC2CCCCC2)cc1OC (stereo not given) | -18.5% | 0.5% | 6.4% | . | -1.1% | . | . | .
O=C(c1cc(-c2cccnc2)nc2ccc(Cl)cc12)N1CCC2(CC1)OCCO2 | -24.3% | -5.1% | -11.2% | -2.0% | -3.7% | ? | 4.8% | -1.2%
COc1ccc(-n2c(=O)c3sc4ccccc4c3n(CC(=O)NCc3ccccc3)c2=O)cc1 | -14.6% | . | . | -1.0% | . | 5.8% | -5.3%[46.1 µM] | -1.5%[46.1 µM]
O=C(NCCCCNC(=O)c1cccnc1)c1cccnc1 | -24.4% | 6.4% | -14.1% | 0.7% | -1.3% | -4.1% | 10.4% | 13.9%
COc1ccccc1NS(=O)(=O)c1ccc(C(=O)N2CCN(c3ccccn3)CC2)cc1 | ? | . | -13.5% | . | -1.7% | . | -18.4% | ?
COc1cccc(N(CC(=O)NCC2CCCO2)C(=O)CCC(=O)Nc2nccs2)c1 (stereo not given) | 5.4% | 0.9% | -5.0% | . | -0.4% | . | 5.9% | -15.7%[46.1 µM]
Cc1ccc(S(=O)(=O)/N=C(/Nc2nc(C)cc(C)n2)N2CCOCC2)cc1 | -2.4% | 5.3% | -7.4%[3.69 µM] | 5.8% | 1.9% | 0.7% | -16.5% | 6.3%
COc1ccc(-c2ccc(-c3noc(C(C)C)n3)c(OC)n2)cc1 | 1.1% | -49.2% | -9.2% | -1.8% | -14.1% | ? | ? | -11.8%
COc1ccc2c(c1)c(C(C)=O)c(C)n2CCc1ccccc1 | 14.1µM* | -3.0% | 1.6% | . | 0.0% | . | . | .
CC(=O)Nc1c2c(nn1-c1ccc(C)cc1)CSC2 | 0.1% | 7.2% | 1.9% | . | 3.9% | . | . | .
CCCCN1CCC(O)(c2ccccc2)C(C(=O)c2ccccc2)C1 (stereo not given) | -26.7% | -5.5% | ? | -10.8% | 0.4% | -7.7% | -15.5% | -28.2%
COC(=O)c1c(NC(=O)Cc2ccccc2)sc2c1CC(C)(C)NC2(C)C | -19.1% | -10.8% | 1.0% | . | 1.9% | . | . | .
CCOc1ccc(-n2c(SCC(=O)N3CCCCC3)nc3c([nH]c4ccccc43)c2=O)cc1 | -34.4% | . | . | -1.1% | . | 0.8% | -9.8%[46.1 µM] | .
CCOc1ccccc1N1CC(c2nc3ccccc3n2CCOc2ccccc2)CC1=O (stereo not given) | ? | . | . | -10.2% | . | ? | ? | ?
CCCNS(=O)(=O)c1ccc(OCC(=O)NCc2ccco2)cc1 | 23.7% | -30.4% | 4.7% | 3.7% | 1.8% | 3.6% | 0.2% | 3.9%
O=C(CCCc1nc2ccccc2s1)N1CCN(c2ccccc2F)CC1 | -14.2% | -4.9% | -1.1% | -0.7% | 6.7% | -1.9% | -2.8% | -5.0%
CCN1CCN(c2cc(C)c3cc(NC(=S)NCCN(C)C)ccc3n2)CC1 | 8.9% | -2.5% | -16.6% | . | -0.9% | . | ? | ?
C=CCOc1cccc(CNCc2ccncc2)c1 | -19.7% | 8.0% | -4.8% | . | -3.5% | . | . | .
COc1ccc(CCNC(=O)C2CC(=O)N(CCc3ccccc3)C2)cc1OC (stereo not given) | -3.5%&-0.6% | -2.7% | -3.9% | 5.0% | -0.8% | 6.0% | 18.3%&-1.0%[46.1 µM] | -18.9%&-18.9%[46.1 µM]
CCCn1ncc(CN2CCN(CCc3ccccc3)C(CCO)C2)c1C (stereo not given) | -21.5% | -4.8% | 21.4% | . | -1.7% | . | . | .
CCOc1ccc(NC(=O)c2cc(S(=O)(=O)N3CCCCCC3)cn2C)cc1 | -12.2% | . | . | 2.4% | . | 13.2% | 15.1%[46.1 µM] | .
CCCN1CCN(CCCNC(=O)c2ccc3c(=O)n(CCc4ccccc4)c(=O)[nH]c3c2)CC1 | 81.8%[activator] | -15.5% | 8.1% | . | -0.7% | . | 7.2%[46.1 µM] | 5.7%[46.1 µM]
CC(C)(C)C(O)C(Cc1ccccc1Cl)n1cncn1 (stereo not given) | 8.7% | -85.3% | 0.6% | . | -4.8% | . | 2.7%[46.1 µM] | -2.7%[46.1 µM]
COc1ccccc1NC(=O)c1ccc(-n2cccn2)c([N+](=O)[O-])c1 | -23.4% | -3.5% | 0.4% | . | -0.8% | . | ? | -27.3%[46.1 µM]
CCOP(=O)(OCC)C(NC(=O)c1ccc(OC)cc1)c1ccccc1 (stereo not given) | 38.8% | . | -8.6% | . | 1.1% | . | 5.3%[46.1 µM] | -0.6%[46.1 µM]
N#C/C(=C\c1ccc(O)c(Br)c1)C(=O)N1CCCCC1 | 80.2%[activator] | -53.0% | -5.6% | . | -7.2% | . | -2.1% | 0.6%
CCn1c(SCC(=O)NCc2ccc3c(c2)OCO3)nnc1-c1ccncc1 | -6.4% | 5.3% | -5.2% | . | -1.2% | . | 3.2%[46.1 µM] | 7.2%[46.1 µM]
COc1ccc(-n2c(=O)c3c4c(sc3n(CC(=O)Nc3cc(C)[nH]n3)c2=O)CCCC4)c(OC)c1 | -27.7% | . | -0.6% | . | -0.8% | . | ? | ?
CCN=c1scc(-c2ccc3c(c2)NC(=O)CO3)n1N=C1CCCC1 | ? | -50.8% | 8.1%&-1.3% | -6.7% | -3.4% | -4.1% | ? | 3.98µM*
O=C(NC1CCN(Cc2ccccc2)CC1)c1ccccc1OCc1ccccc1 | ? | 3.7% | -12.4% | . | 0.3% | . | . | .
O=C(NCCCN1CCOCC1)c1ccc(Cl)s1 | 50.0%[activator] | 20.2% | 12.0% | 0.1% | 7.1% | -11.2% | 4.6% | 1.9%
OC1CCC(NC(=S)Nc2ccc(SC(F)F)cc2)CC1 (stereo not given) | 23.9% | . | 1.5% | . | -4.0% | . | 6.8%[46.1 µM] | ?
CC[C@@H]1[C@H]2CCCC(=O)N3CC[C@@H](C[C@@H]1Nc1ccccc1)[C@@H]23 | -29.0% | -5.0% | -7.2% | . | 0.0% | . | . | .
CC(C)=CCC/C(C)=C/CNC(=O)C[C@H]1C[C@H](C(=O)N2CCOCC2)[C@@]2(C)c3[nH]c4cc(CCC(=O)N(C)C)ccc4c3CCN2C1=O | -26.4% | . | -2.6% | . | -2.9% | . | . | 0.3%
CCc1cc2ccc(C)c(C)c2nc1SCC(=O)Nc1cc(C)on1 | -15.4% | 2.9% | 3.1% | . | 2.2% | . | ? | ?
O=C(Nc1cc(Sc2nc3ccccc3s2)cc([N+](=O)[O-])c1)c1cccc(F)c1F | ? | 25.0% | 0.7% | -1.7% | 8.3% | ? | 3.2% | ?
CN(C)CCNC(=O)C(=O)NCC(c1cccnc1)N1CCN(c2ccccc2)CC1 (stereo not given) | -0.7% | . | . | -10.0% | . | ? | -27.6%[46.1 µM] | .
CC1CCc2nc(N)c(C#N)c(-c3cccnc3)c2C1 (stereo not given) | ? | -1.6% | 6.7% | -6.4% | 18.2% | 0.4% | . | .
CN(Cc1ccccc1)Cc1c(F)cccc1F | -13.6% | 2.8% | -16.9% | 5.7% | 8.4% | 4.9% | -14.9% | -0.3%
CCc1nnc(NC(=O)c2cccc(S(=O)(=O)N3CCCCC3)c2)s1 | -15.3% | 3.7% | 13.4% | . | 0.5% | . | 11.5% | -13.2%
